High-throughput results from PubChem.
Vaccinia mCherry = inhibitors of vaccinia virus infection (mCherry reporter signal); Potency, µM (titrated, usually from 36.5 µM), inactives show at the top dose activity change, negative = inhibition, most hits filed as inhibitors; AID 720579; Vaccinia virus mCherry reporter infection, fluorescence; about a quarter of the inactives have no number; actives 0.63% (n = 310,000); active = well fitted inhibition curve with a large enough effect; inconclusive = small, poorly fitted or top-dose-only effect; inactive = no such curve, though single readings can be large or run the other way; tested in A549 cells; note: nearly all actives have a fitted effect of over 35% in size; inactives centre near -10
VACV Venus inh = inhibitors of vaccinia virus (Venus reporter); AID 720580; Potency, µM (top dose mostly 36.5 µM), for the others: top-dose activity change, negative = inhibition, hits mostly inhibitors; actives 0.46% (n = 330,000); Vaccinia virus Venus reporter expression, fluorescence; active means well fitted inhibition curve with a large enough effect; inconclusive means small, poorly fitted or top-dose-only effect; inactive means no such curve, though single readings can be large or run the other way; tested in A549 cells; note: nearly all actives have a fitted effect of over 30% in size; inactives centre near -10
* hit, by the source's call; i = inactive; ? = inconclusive; . = no result given; & = joins results of further samples; [ ] = dose if it differs, or a comment. % is set by controls: 0 for no effect and ±100 for the full control effect; potency is the fitted concentration of half-maximal effect.

SMILES | Vaccinia mCherry | VACV Venus inh
Cc1ccc(-c2c(C)cc3oc(=O)cc(-c4ccccc4)c3c2C)cc1 | i | 0%
CCOc1cc(C2CC(=O)NC3=C2C(=O)C(C(=O)OC)C(C)C3)cc(Br)c1O (stereo not given) | . | -10%
CCOc1ccccc1Nc1nc(N)nc(CN2CCCCC2C)n1 (stereo not given) | i | -13%
CCCCCCCCCCCCN1[C@@H](CC(=O)OC)c2cc(C(F)(F)F)ccc2S1(=O)=O | -15% | -7%&-7%
CCSc1nc2ccc(C)cc2cc1C#N | -10% | 1%
COc1cccc(CN(C)C(=O)c2sccc2-c2ccccc2)c1OC | i | 7%
CN(C)C(=O)c1ccccc1-c1ccccc1 | -13% | -12%
COc1ccccc1/C=C/C1NC(=O)NC(C)=C1C(=O)OC(C)C (stereo not given) | i | -11%
Cc1ccc(CNc2ccc3c(c2)nc(C)n3C)cc1 | ? | -6%
COc1cc(CNC(=O)c2cc(-c3ccc(F)cc3C)n[nH]2)cc(OC)c1 | i | -11%
Cc1ccccc1CNC(=O)c1ccc2ccccc2n1 | -9% | 3%
CCOC(=O)C1=C(C)Nc2ccccc2N=C1NC(=O)Cc1ccc(OC)cc1 | i | -11%
O=C(Nc1cccnc1)C1(c2ccccc2)CCCC1 | -6% | -3%
COCCN(C(=O)C(C)N1C(=O)c2ccccc2C1=O)c1c(N)n(CC(C)C)c(=O)[nH]c1=O (stereo not given) | -13% | -2%
OC(c1ccccc1)(c1ccccc1)C1CCN(CCCOc2ccc3c(c2)CCCC3)CC1 | ? | ?
CCN(CC(=O)NCc1ccc(Cl)cc1)C(=O)c1ccc2cc(OC)ccc2c1 | i | -15%
CCN(CC)S(=O)(=O)c1cccc(NC(=O)COC(=O)CCC(=O)c2ccc(F)cc2)c1 | i | -10%
O=C(Nc1nncs1)c1ccc(F)c(S(=O)(=O)N2CCCCC2)c1 | -12% | 6%
COCCn1nnnc1C(c1cccs1)N1CCCC(C)C1 (stereo not given) | -1% | -11%
O=c1c(Cl)c(NCc2ccccc2Cl)cnn1C12CC3CC(CC(C3)C1)C2 | -15% | -4%
C=C1CCC2[C@](C)(CO[C@@H]3O[C@H](CO)[C@@H](O)[C@H](O)[C@H]3O)CCC[C@@]2(C)[C@@H]1CCC1=CCOC1=O (stereo not given in full) | 1% | 4%
N#Cc1nc(COc2ccc(-c3ccccc3)cc2)oc1N1CCC(C(N)=O)CC1 | i | -14%
O=S(=O)(NC1CCN(Cc2ccccc2)CC1)c1ccc2ccccc2c1 | -6% | -13%
COc1ccc(NC(=O)C(=O)N/N=C/c2cccnc2)c(OC)c1 | -2% | 4%
Cc1ccc(S(=O)(=O)/N=C2\C=C(Nc3cccc(C(=O)O)c3)C(=O)c3ccccc32)cc1 | ? | 5%

Continued, starting with the last 3 of the part before.
SMILES | Vaccinia mCherry | VACV Venus inh
O=S(=O)(NC1CCN(Cc2ccccc2)CC1)c1ccc2ccccc2c1 | -6% | -13%
COc1ccc(NC(=O)C(=O)N/N=C/c2cccnc2)c(OC)c1 | -2% | 4%
Cc1ccc(S(=O)(=O)/N=C2\C=C(Nc3cccc(C(=O)O)c3)C(=O)c3ccccc32)cc1 | ? | 5%
Cc1csc2nc(COc3ccc(NC(=O)COc4ccccc4)cc3)cc(=O)n12 | -8% | 6%
COc1ccc(-c2nc(CSCC(=O)NCCc3ccc(OC)c(OC)c3)c(C)o2)cc1 | i | -18%
O=C(NCC(c1cccnc1)N1CCOCC1)NC1CCCCC1 (stereo not given) | -2% | -10%
Cc1sc(-n2cccc2)c(C(C)NC(=O)Nc2cccc(C(F)(F)F)c2)c1C (stereo not given) | -18% | -23%
CC(=O)/C=C(\C)NCCNc1c(F)c(F)c(CO)c(F)c1F | . | -9%
COc1cccc(CNc2nc(NCc3ccccc3OC)nc3ccsc23)c1 | ? | ?
COc1cccc(-c2sc3cc(OC)c(OC)cc3c2-c2ccc(OCCN3CCCCC3)cc2)c1 | -28% | -28%
Cc1ccc(C(=O)c2cn(Cc3ccccc3F)c3cc4c(cc3c2=O)OCO4)cc1 | 3% | 7%
CC(C)CN(CC(C)C)C(=O)CCCC(=O)N(CC(C)C)CC(C)C | -13% | -16%
CCCCN(C=O)c1c(CC)nc2ccc(C(=O)N3CCN(S(=O)(=O)CC)CC3)cn12 | 11% | -9%
COc1ccc2ccn(C)c2c1 | -5% | -19%
CSc1ccc(C(=O)C2CCCN(Cc3cccc4nccnc34)C2)cc1 (stereo not given) | ? | -26%
COc1ccccc1NC(=O)C(=O)c1cc(C)n(-c2ccccc2F)c1C | -12% | 1%
Fc1ccc(NC(=S)NC2CCCCC2)c(F)c1F | -15% | -13%
CC(C)N(C(=O)CN1C(=O)NC2(CCCCCC2)C1=O)C(C)C | -14%[1.46 µM] | -13%
Cc1noc(C)c1S(=O)(=O)N(C)C[C@H]1Oc2c(NC(=O)C3CCCCC3)cccc2C(=O)N([C@H](C)CO)C[C@@H]1C | i | -20%
CCN1CN(CCc2ccccc2)CNC1=S | -8% | -3%
O=C(CN(Cc1ccco1)C(=O)c1ccc(N2CCCC2=O)cc1)Nc1ccccc1C(F)(F)F | -14% | -14%
Cn1nnnc1SCCCNCc1ccccc1OCc1ccccc1F | -18% | -20%
CCn1c(-c2cccc(OC)c2)nc2cc(NC(C)=O)cc(C(=O)N3CCCC(C(C)=O)C3)c21 (stereo not given) | -16% | -9%
COc1ccc(OC)c(NC(=O)c2cc3c(Cl)nc4ccccc4c3s2)c1 | i | -9%
N#CCC(=O)NNc1c([N+](=O)[O-])cc(C(F)(F)F)cc1[N+](=O)[O-] | -25% | -15%
CN(CC(=O)Nc1cccc(F)c1)C(=O)CC1CC2CCC1C2 (stereo not given) | -11% | -3%
NC(=O)c1cc(S(=O)(=O)N2CCN(c3ccc([N+](=O)[O-])cc3)CC2)cs1 | -18% | -11%
CSC(=NC1CCCCC1)NS(=O)(=O)c1ccccc1 | ? | 0%&-29%

An excerpt of these results, field by field.
COc1cc(CNC(=O)c2cc(-c3ccc(F)cc3C)n[nH]2)cc(OC)c1
  Vaccinia mCherry = i
  VACV Venus inh = -11%
Cc1ccccc1CNC(=O)c1ccc2ccccc2n1
  Vaccinia mCherry = -9%
  VACV Venus inh = 3%
CCOC(=O)C1=C(C)Nc2ccccc2N=C1NC(=O)Cc1ccc(OC)cc1
  Vaccinia mCherry = i
  VACV Venus inh = -11%
O=C(Nc1cccnc1)C1(c2ccccc2)CCCC1
  Vaccinia mCherry = -6%
  VACV Venus inh = -3%

(listing goes on)
SMILES | Vaccinia mCherry | VACV Venus inh
CCOC(=O)c1ccc(NC(=O)CCn2cnnn2)cc1 | 5% | 5%
COCCNC(=O)Cn1cc(C(=O)c2cccs2)c2ccccc21 | -11% | -9%
O=C(NCCc1ccccc1)C1CCCN(c2nc3ccccc3s2)C1 (stereo not given) | 11% | -6%
O=C(c1ccccc1Br)N(Cc1ccco1)C1CCS(=O)(=O)C1 (stereo not given) | -6% | 5%
COc1ccc(CNC(=O)CSc2nnc(-c3cccnc3)n2N)cc1 | 4% | -1%
CC(=O)c1cccc(OCC(O)CNCCc2ccc(Cl)cc2)c1 (stereo not given) | -2% | -10%
CCOc1ccc(-c2nnc(SCC(=O)c3ccc(F)cc3)n2-c2ccccc2)cc1 | -15%[7.34 µM] | -4%[7.34 µM]
Cc1cc(C)c(S(=O)(=O)Nc2ccc(C(N)=O)cc2)c(C)c1 | -14% | -11%
Cc1csc(SCC(=O)Nc2cccc(C)c2C)n1 | i | -11%
CC(=O)c1cccc(NC(=O)C2CCCN2S(=O)(=O)c2ccccc2C(F)(F)F)c1 (stereo not given) | -11% | -8%
Cc1ccc2c(COC(=O)C3CC(=O)N(c4ccc5c(c4)OCCO5)C3)cc(=O)oc2c1 (stereo not given) | -20% | -8%
Cc1ccc(C)c(NC(=O)CSc2cn(CC(=O)N3CCCCC3)c3ccccc23)c1 | -7% | -14%
CCCCCCN1CCN(C2CN(Cc3cn(Cc4ccc(C)cc4)nn3)S(=O)(=O)C2)CC1 (stereo not given) | -19% | -8%
Nc1nnc(-c2ccc(Cl)c(Cl)c2)s1 | -11% | -19%
CCC(=O)N(C)C[C@H]1Oc2ncc(C#Cc3cccnc3)cc2C(=O)N([C@@H](C)CO)C[C@@H]1C | i | -9%
CN(C)c1nc(SCC(=O)Nc2ccc(Cl)c(Cl)c2)nc(N2CCOCC2)n1 | 6% | -11%
CCn1cc2nc(SCC(=O)Nc3ccc(C)cc3)n(Cc3ccc(C)cc3)c(=O)c2n1 | -15% | -8%
N#Cc1c2c(c(Nc3ccccc3)n3c1nc1ccccc13)CCC2 | . | -1%
COc1ccc(CSc2nnc(C)n2N)cc1Br | -4%[1.46 µM] | -15%
Cc1ccc2[nH]c(O)c(N=NC(=O)C(C)n3cnc4ccccc4c3=O)c2c1 (stereo not given) | 12% | -8%
C=CCNc1ncnc2c1ncn2[C@H]1CN(Cc2ccccc2)C[C@@H](COC(C)=O)O1 | 28% | -6%
CCN(CC)S(=O)(=O)c1ccc(Cl)c(C(=O)NCC2CCCO2)c1 (stereo not given) | -7% | -9%
Oc1ccc(-c2cnccn2)cc1CN1CCN(C2CCCCC2)CC1 | -9% | 5%
CCCCCOc1ccc(CSc2ncn[nH]2)cc1 | -14% | -10%
CCC(Sc1ccccn1)C(=O)Nc1cccc([N+](=O)[O-])c1 (stereo not given) | -17% | -8%

Another view of part of the listing above:
> C=CCNc1ncnc2c1ncn2[C@H]1CN(Cc2ccccc2)C[C@@H](COC(C)=O)O1
- Vaccinia mCherry: 28%
- VACV Venus inh: -6%

> CCN(CC)S(=O)(=O)c1ccc(Cl)c(C(=O)NCC2CCCO2)c1 (stereo not given)
- Vaccinia mCherry: -7%
- VACV Venus inh: -9%

(list continues)
SMILES | Vaccinia mCherry | VACV Venus inh
CN(Cc1ccccc1)C(=O)c1cc2c(=O)n(C)c3ccccc3c2s1 | -21% | -13%
COc1ccc(-c2noc(CN(C)C(=O)c3ccoc3C)n2)cc1OC | -16% | -3%
CC(=O)c1ccc(NC(=S)Nc2ccn(Cc3ccc(Br)cc3)n2)cc1 | -9% | -15%
CCn1c(=N)n(CC(=O)c2cccc(OC)c2)c2ccccc21 | -19% | -18%
CC1CCc2cc(F)ccc2N1C(=O)CSc1nnc2c3cc(F)ccc3n(C)c2n1 (stereo not given) | i | -6%
Brc1cnc(N2CCCCC2)nc1N1CCOCC1 | -11% | 1%
CC(C)C(C(=O)Nc1nccs1)c1ccccc1 (stereo not given) | . | -11%
C=CCC1(C(=O)N(C)Cc2ccccc2)CCN(C(=O)OC(C)(C)C)CC1 | -2% | -16%
COC(=O)[C@]12CCCCC=C1N(CCC1=CCCCC1)C(=O)[C@H](CC(=O)N1CCC(c3ccccc3)CC1)C2 | 8% | -6%
O=C(COC(=O)Cn1cnc2ccccc2c1=O)Nc1cc(Cl)ccc1[N+](=O)[O-] | i | -8%
Cn1c(=O)c2[nH]c(SCCN3CCCCC3)nc2n(C)c1=S | i | -5%
CC(C)c1ccc(/C=C/C(=O)NCCC2=CCCCC2)cc1 | -15% | -14%
CCc1ccc(/C=C2/SC(=S)N(CCCC(=O)Nc3cccc(C(=O)O)c3)C2=O)cc1 | i | -3%
COc1ccc(CN2CCNC(=O)C2CC(=O)N(C)Cc2nc(C)cs2)c(OC)c1 (stereo not given) | -2% | -18%
CCOc1ccc(N(C(C)C(=O)N2CCOCC2)S(C)(=O)=O)cc1 (stereo not given) | -23% | -6%
Cc1cccc(NC(=O)C(C)N2C(=O)c3ccccc3S2(=O)=O)n1 (stereo not given) | -18% | -18%
CCOC(=O)C1(CC)Oc2ccccc2C(c2ccc(OC)cc2)=C1C(=O)OC (stereo not given) | i | -6%
COc1ccc(Cl)c(-c2cc(C(=O)NCc3ccco3)[nH]n2)c1 | i | -1%
CCOC1=C2CN(S(=O)(=O)c3ccc(C)cc3)[C@H](c3ccccc3)C[C@@H]2N(S(=O)(=O)c2ccccc2)[C@H](c2ccccc2)C1 | 44%[activator] | 0%
O=C(N/N=C1\CCc2ccccc21)c1ccccc1O | -18% | -14%
NCC(O)CN1CCN(Cc2ccccc2)CC1 (stereo not given) | -11% | -6%
CCCC(=O)C1C(=O)CC(C)(C)C(c2cc(C)no2)C1=O (stereo not given) | . | -15%
COc1cccc(-n2c(=O)c3cc(OC)c(OC)cc3n(CC(=O)Nc3ccc(F)cc3)c2=O)c1 | i | -5%
N#CCc1ccc(NC(=O)c2cc(S(=O)(=O)N3CCOCC3)ccc2Cl)cc1 | i | -9%
Cc1c(C(=O)Nc2c(C)n(C)n(-c3ccccc3)c2=O)oc2c(Cl)cccc12 | -27% | -21%
Later entries.
SMILES | Vaccinia mCherry | VACV Venus inh
CCc1nc2c(OCc3ccc(Cl)cc3Cl)cccn2c1N(C)C(=O)C(C)C | ? | ?
CCCN(CCO)Cc1ccc2ccccc2c1 | -7% | -8%
Cc1ccc(N2CC(C(=O)N3CCC(C(=O)NCCCOC(C)C)CC3)CC2=O)cc1 (stereo not given) | -15% | -2%
COc1ccc(CC(=O)N2CCN(c3ccccn3)CC2)cc1 | -11% | -4%
Cc1cccc(OCC(=O)N2CCN(Cc3cccnc3)CC2)c1 | -12% | -6%
O=C(NC1CCCCC1)c1cccs1 | -13% | -7%
CC1CN(S(=O)(=O)c2cccc(C(=O)Nc3ccc4c(c3)CCC4)c2)CC(C)O1 (stereo not given) | ? | -24%
COc1ccc(-c2nc(CNS(=O)(=O)c3ccc(OC)c(OC)c3)cs2)cc1 | i | -17%
O=C(NCCc1ccc(F)cc1)C1CCCCC1 | i | -7%
